Compound activity from PubChem BioAssay.
SARS PLpro yeast = qHTS of Yeast-based Assay for SARS-CoV PLP; Potency, µM (doses to about 32.9 µM), for inactives: at the highest dose activity, positive = growth rescue; 330,000 tested, 0.19% active; S. cerevisiae expressing SARS-CoV PLpro, growth rescue; control for the full effect not named in the record; active means well fitted rising curve with a large enough effect; inconclusive means small, poorly fitted or top-dose-only effect; inactive means no such curve, though single readings can be large or run the other way; further: 0% is about no effect; nearly all actives have a fitted effect of over 55% in size; growth read by luminescence after 48 h
Lassa entry inh = qHTS for Inhibitors of binding or entry into cells for Lassa Virus; Lassa virus pseudotype entry inhibition, cell reporter; control for the full effect not named in the record; Potency, µM (series often up to 37.9 µM), without a hit: at the highest dose activity change, negative = inhibition, usual class: inhibitors; 300,000 tested, 1.2% active; AID 540256, 2011; active means well fitted inhibition curve with a large enough effect; inconclusive means small, poorly fitted or top-dose-only effect, or effect the other way; inactive means flat fitted curve, though single readings scatter; tested in HEK293 cells; further: on the % scale 0 is the no-effect control and ±100 the full control effect; nearly all actives have a fitted effect of over 50% in size; luciferase read-out
StopGo reporter = High Throughput Screening for Foot and Mouth Disease Virus Antivirals | 410,000 tested, 1.2% active | Potency, µM (top dose mostly 57.9 µM), for the others: at the top dose signal change, negative = less light | human cells with a luciferase reporter of 2A StopGo recoding; control for the full effect not named in the record | AID 1159524, 2015; active = well fitted falling curve with a large enough effect; inconclusive = small, poorly fitted or top-dose-only effect; inactive = no such curve, though single readings can be large or run the other way; tested in HEK293T cells; further: on the % scale 0 is the no-effect control and ±100 the full control effect; nearly all actives have a fitted effect of over 45% in size; luciferase light after 4 h
Cruzain inh Det = qHTS Assay for Promiscuous and Specific Inhibitors of Cruzain (with detergent) | AID 1478, 2009 | 200,000 tested, 0.43% active | Potency, µM, for inactives: max response, negative = inhibition, actives largely listed as inhibitors | Cruzipain (Trypanosoma cruzi), P25779 | purified cruzain, Z-FR-AMC fluorescence, 0.01% Triton;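 further: plate controls were neutral wells for no effect and buffer without enzyme for full effect; nearly all actives have a fitted effect of over 40% in size; top concentration of the series not given in the record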
Target sequence (P25779 123-467 limits assumed): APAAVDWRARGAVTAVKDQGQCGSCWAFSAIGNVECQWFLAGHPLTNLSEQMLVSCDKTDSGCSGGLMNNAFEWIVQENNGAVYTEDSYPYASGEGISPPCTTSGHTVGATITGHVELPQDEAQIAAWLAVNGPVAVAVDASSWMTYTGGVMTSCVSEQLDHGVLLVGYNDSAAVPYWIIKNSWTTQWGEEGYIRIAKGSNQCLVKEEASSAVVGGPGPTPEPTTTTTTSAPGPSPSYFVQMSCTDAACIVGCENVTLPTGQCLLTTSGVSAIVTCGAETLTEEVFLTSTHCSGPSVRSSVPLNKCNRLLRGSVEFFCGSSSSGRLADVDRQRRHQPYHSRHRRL
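15 min RT preincubation of 1.5 nM cruzain with compound, then 2 uM Z-FR-AMC added; kinetic AMC fluorescence, 60 s delta. Triton X-100 0.01%, pH 5.5.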
Cruzain inh noDet = qHTS Assay for Promiscuous and Specific Inhibitors of Cruzain (without detergent); Cruzipain (Trypanosoma cruzi), P25779; purified cruzain, Z-FR-AMC fluorescence, no detergent; Potency, µM, without a hit: max response, negative = inhibition, most hits filed as inhibitors; 200,000 tested, 2.3% active;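 further: plate controls were enzyme without inhibitor for no effect and buffer without enzyme for full effect; nearly all actives have a fitted effect of over 40% in size; top concentration of the series not given in the record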
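Detergent-free condition (0.00005% Triton X-100) in acetate buffer pH 5.5 with DTT. 1.5 nM enzyme and compound were pre-mixed 15 min, then 2 uM Z-FR-AMC substrate added; reaction progress from fluorescence change between first and third reads (60 s).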
NS1 inh = qHTS Assay for Inhibitors of Influenza NS1 Protein Function. S. cerevisiae slowed by influenza A NS1, growth recovery by OD600. Potency, µM (top dose mostly 46.1 µM), for inactives: at the top dose activity, positive = more growth. 270,000 tested, 0.4% active. AID 2326, 2010; active means well fitted rising curve with a large enough effect; inconclusive means small, poorly fitted or top-dose-only effect; inactive means no such curve, though single readings can be large or run the other way; further: nearly all actives have a fitted effect of over 50% in size
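OD600 was taken as the measure of yeast growth restored by compound in an NS1-expressing S. cerevisiae strain. Cells had been washed out of glucose medium and diluted 1:100 into galactose -URA medium, pH 6.0.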
RE007 growth inh = qHTS Assay for Inhibitors of the HIV-1 protein Vpr. S. pombe RE007 Vpr strain, BacTiter-Glo ATP luminescence, 24 h; control for the full effect not named in the record. Potency, µM (top dose mostly 92.2 µM), for inactives: at the top dose activity change, negative = less growth. 360,000 tested, 0.21% active; active = well fitted falling curve with a large enough effect; inconclusive = small, poorly fitted or top-dose-only effect; inactive = no such curve, though single readings can be large or run the other way;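 further: on the % scale 0 is the no-effect control and ±100 the full control effect; nearly all actives have a fitted effect of over 50% in size; the assay follows cell death caused by Vpr and the record does not say whether a fall means rescue or toxicity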
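Fission yeast RE007 carrying one integrated HIV-1 vpr copy, seeded at OD 0.01 in PMG+AL medium with 23 nL pinned compound. Grown 24 h at 30 degrees; viability read by BacTiter-Glo luminescence after 5 min.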
Marburg entry inh = qHTS for inhibitors of binding or entry into cells for Marburg Virus; Marburg virus pseudotyped entry inhibition, cell reporter; control for the full effect not named in the record; about a third of the inactives were read at about 46 µM; Potency, µM (titrated, usually from 37.8 µM), for the others: at the highest dose activity change, negative = inhibition, most hits filed as inhibitors; 300,000 tested, 1.8% active; AID 540276, 2011; active = well fitted inhibition curve with a large enough effect; inconclusive = small, poorly fitted or top-dose-only effect, or effect the other way; inactive = flat fitted curve, though single readings scatter; tested in HEK293 cells; about a fifth of its hits are not listed in these tables; further: on the % scale 0 is the no-effect control and ±100 the full control effect; luciferase read-out
* marks the source's active call; other numbers are inactive results; ? = inconclusive; nt = not tested or not shown; & = joins results of further samples; [ ] = remark or other dose. Unless noted, the call rests on the fitted dose curve; in most records, active means well fitted curve in the direction sought with a large enough effect; inconclusive means small, poorly fitted or top-dose-only effect, or another doubt; inactive means no such curve, though single readings can be large; an effect the other way counts as inactive or inconclusive. Potency means the concentration at half of the fitted maximal effect. Rows were taken by chance; overall some 4.5% were active at least once.

SMILES	SARS PLpro yeast	Lassa entry inh	StopGo reporter	Cruzain inh Det	Cruzain inh noDet	NS1 inh	RE007 growth inh	Marburg entry inh
CCOC(=O)CSC1=C(C#N)C(c2ccc(F)cc2)C(C(C)=O)=C(C)N1 (stereo not given)	-12%	-17%	nt	-2.2%	-4%	-40%	7%	-11%&-1%
Brc1ccc2c(c1)C(c1cccs1)=NNC(c1cccnc1)=N2	2%	-13%	-24%	-8.0%	7%	16%	-22%	?
N#Cc1cccc(Nc2ncnc3c2cnn3-c2cccc(Cl)c2)c1	nt	-3%[46.1 µM]	-11%	-0.1%	-8%	nt	nt	nt
Cc1ccc(CCC(=O)Nc2ccc(Cl)cc2)o1	-7%	-4%[46.1 µM]	16%	nt	nt	-34%	5%	2%[46.1 µM]
COc1ccc(S(=O)(=O)N2CCN(C(=O)c3cccs3)CC2)cc1	4%	1%	-22%	-2.3%	-2%	-8%	32%	19%[46.1 µM]
O=C(NC(Cc1ccccc1)C(=O)Oc1ccc2c(C(F)(F)F)cc(=O)oc2c1)OCc1ccccc1 (stereo not given)	-2%	-7%	-14%	11µM*	?	-14%	-8%	-11%
COc1cc(C(=O)NCCC(=O)NCCN2CCCCCC2)cc(OC)c1OC	3%	4%	-10%	1.9%	-4%	2%	1%	16%
COc1ccc(C(C(O)C(=O)c2c[nH]c3ccccc23)N2CCN(c3ccc(OC)cc3)CC2)cc1 (stereo not given)	-2%	?	100%[activator]	5.7%	-17%	-9%	-1%	-10%&-10%
COc1ccccc1OCCCCOc1ccccc1C(C)=O	-22%	?	?	-3.2%	4%	-22%	-3%	-19%
O=C(COc1ccccc1Cc1ccccc1)NCCCN1CCOCC1	0%	21%	3%	nt	nt	-2%	0%	-6%[46.1 µM]

Brought forward from above: seven compounds; new compounds follow.
SMILES	SARS PLpro yeast	Lassa entry inh	StopGo reporter	Cruzain inh Det	Cruzain inh noDet	NS1 inh	RE007 growth inh	Marburg entry inh
Cc1ccc(CCC(=O)Nc2ccc(Cl)cc2)o1	-7%	-4%[46.1 µM]	16%	nt	nt	-34%	5%	2%[46.1 µM]
COc1ccc(S(=O)(=O)N2CCN(C(=O)c3cccs3)CC2)cc1	4%	1%	-22%	-2.3%	-2%	-8%	32%	19%[46.1 µM]
O=C(NC(Cc1ccccc1)C(=O)Oc1ccc2c(C(F)(F)F)cc(=O)oc2c1)OCc1ccccc1 (stereo not given)	-2%	-7%	-14%	11µM*	?	-14%	-8%	-11%
COc1cc(C(=O)NCCC(=O)NCCN2CCCCCC2)cc(OC)c1OC	3%	4%	-10%	1.9%	-4%	2%	1%	16%
COc1ccc(C(C(O)C(=O)c2c[nH]c3ccccc23)N2CCN(c3ccc(OC)cc3)CC2)cc1 (stereo not given)	-2%	?	100%[activator]	5.7%	-17%	-9%	-1%	-10%&-10%
COc1ccccc1OCCCCOc1ccccc1C(C)=O	-22%	?	?	-3.2%	4%	-22%	-3%	-19%
O=C(COc1ccccc1Cc1ccccc1)NCCCN1CCOCC1	0%	21%	3%	nt	nt	-2%	0%	-6%[46.1 µM]
CCn1ccnc1CN(C)C(=O)CCc1nnc(CCCc2ccccc2)o1	0%	nt	30%[activator]	nt	nt	-7%	7%	nt
COc1ccccc1C(=O)Nc1nnc(S(=O)(=O)N2CCOCC2)s1	2%	nt	31%[activator]	nt	nt	-8%	-4%	nt
NC1=NC2(CCCCC2)n2c(nc3ccccc32)N1	1%	12%	-12%	3.7%	0%	5%	-2%	-1%[46.1 µM]
COc1ccccc1NC(=O)c1oc2ccccc2c1NC(=O)c1ccco1	4%	0%	?	-10%	?	-10%	-10%	-27%
O=C(CN1CCN(C(=O)C2CCCO2)CC1)Nc1ccc(Cl)cc1 (stereo not given)	nt	2%	-19%	nt	nt	10%	-25%	?
COc1cccc(C2C3=C(N=c4s/c(=C\c5ccc(O)cc5)c(=O)n42)c2ccccc2CC3)c1OC (stereo not given)	22%	11%	-19%	-1.6%	?	15%	-12%	20%
O=C(CSc1nc2ccc([N+](=O)[O-])cc2[nH]1)NC1CCCCC1	-7%	4%	?	-10%	-3%	-3%	9%	?
O=C(Cc1ccc(Cl)cc1)Nc1ccc(N2CCCC2)cc1	7%	17%	-5%	3.5%	6.3µM*	6%	-4%	18%
CCN1C(=O)c2cccc3c(S(=O)(=O)Nc4ccncc4)ccc1c23	11%	0%	92%[activator]	-5.8%	-10%	10%	-3%	?
N#C/C(=N\Nc1ccccc1)C(=N)N1CCOCC1	14%	20%	61%[activator]	-8.5%	-2%	-4%	2%	?
Cc1ccc(-c2nc(=S)c3c(n2Cc2ccco2)CCCC3)cc1	-3%	-2%	-5%	-3.8%	2%	1%	-17%	2%
C=CCSC1=N/C(=C\c2ccsc2)C(=O)S1	-6%	5%	0%	-5.8%	-7%	-55%	-25%	-11%
Cc1cc(C)cc(NC(=O)CN(c2cccc(C)c2C)S(=O)(=O)c2ccccc2)c1	nt	-20%[46.1 µM]	-9%	-7.1%	?	nt	nt	?
Fc1cccc(NC(=S)Nc2cccnc2)c1	-1%	0%	31%[activator]	nt	nt	-2%	31%	-6%[46.1 µM]
O=C(CSc1nnc(COc2ccc(Cl)cc2)o1)N1c2ccccc2CCc2ccccc21	-5%	?	0%	2.8%	?	23%	1%	?
Cc1[nH]c2ccccc2c1C(=O)C(=O)N1CCN(C(=O)c2ccco2)CC1	0%	6%	1%	nt	nt	nt	-6%	18%
Cc1cc(CNC(=O)COc2ccccc2F)c2ccccc2n1	-1%	-19%	-10%	nt	nt	3%	-20%	?
O=C1c2cccc3cccc(c23)C(=O)N1OS(=O)(=O)c1ccc(Br)cc1	-34%	17%	-13%	-7.6%	5%	1%	1%	?
COc1ccccc1C/C(N)=N/O	2%	2%	-18%	-2.1%	13%	-3%	23%	10%
O=C(Cc1ccc(O)cc1)NCCNC(=S)NCc1ccccc1	2%	-11%	4%	nt	nt	3%	7%	5%[46.1 µM]
Cc1ccc(C(=O)NCC(=O)OCC(=O)N(CC(C)C)c2c(N)n(Cc3ccccc3)c(=O)[nH]c2=O)cc1C	-3%	?	-9%	nt	nt	nt	-2%	-2%
C=C(C)C(=O)Nc1cccc(C2=NOC3(C2)C[C@@H](C(N)=O)N(C(=O)c2ccc(Cl)cc2)C3)c1 (stereo not given in full)	-1%	nt	-4%	nt	nt	-7%	-5%	nt
COc1ccc2c(c1)c(=O)oc1cc(O)ccc12	-1%	nt	33%[activator]	nt	nt	-4%	-9%	nt
Cc1cc(C(=O)N/N=C2\CCCC(=O)C2)c(C)o1	4%	-6%	-13%	nt	nt	nt	2%	1%[46.1 µM]
CC(C)C(=O)Nc1ccccc1OCc1cc(=O)n2ccccc2n1	nt	2%[46.1 µM]	3%	3.5%	11%	nt	nt	nt
COCCn1c(=O)[nH]c2cc(C(=O)NC3CCCCCC3)ccc2c1=O	13%	nt	-20%	0.5%	-7%	-3%	20%	nt
O=C(/C=C/c1ccc(Cl)c([N+](=O)[O-])c1)c1cccnc1	-5%	nt	?	nt	nt	-33%	-28%	nt
O=C(CN1C(=O)NC2(CCCC2)C1=O)N1CCN(S(=O)(=O)c2ccccc2[N+](=O)[O-])CC1	nt	-20%	-7%	nt	nt	nt	34%	6%
CN1CCN(NC(=O)c2ccc(S(=O)(=O)N3CC4(C)CC3CC(C)(C)C4)cc2)CC1 (stereo not given)	0%	nt	-6%	nt	nt	0%	8%	nt
CCN1CCN(c2cc3c(cc2F)c(=O)c(S(=O)(=O)c2ccccc2)cn3C)CC1	19%	-15%&8%[46.1 µM]	-1%&-14%	1.6%	-6%	-8%	-8%	7%&7%[46.1 µM]
O=C(O)c1ccc(C(=O)C(=O)c2ccccc2)cc1	4%	0%	15%	nt	nt	-38%	21%	18%[46.1 µM]
CSc1ncccc1C(=O)OCC(=O)Nc1ccc(Cl)cn1	4%	2%	-11%	nt	nt	nt	-20%	17%
COc1ccc(OC)c(C(C)NC(=O)C(C)Cc2ccccc2)c1 (stereo not given)	2%	-17%[46.1 µM]	-10%	nt	nt	11%	17%	?
Cc1ccnc(NC(=O)c2ccc(NS(=O)(=O)/C=C/c3ccccc3)cc2)c1	0%	-14%	55%[activator]	nt	nt	nt	-19%	-2%
COc1cccc(C(=O)Nc2ccc3nc(N4CCOCC4)cc(C)c3c2)c1	5%	nt	-9%	-12%	1%	-91%	6%	nt
CC1CCN(C2=NC(=O)/C(=C/c3ccccc3F)S2)CC1	-1%	?	-6%	nt	nt	-11%	-10%	?
CN(CC(=O)NCCN1CCCCCC1)S(=O)(=O)c1cccc2nsnc12	1%	8%	25%	-5.8%	-4%	-1%	13%	?
Cc1oc(/N=C/c2ccc(Cl)cc2)c(C#N)c1C	2%	0%	8%	-0.5%	-1%	2%	7%	?
COCCCN1C(=O)C(=O)/C(=C(/O)c2ccc(OC)cc2C)C1c1cccnc1 (stereo not given)	-5%	-4%	16%	-3.8%	-1%	8%	-3%	0%
Cc1ccc(C(=O)N/C(=C\c2ccc(-c3cccc([N+](=O)[O-])c3)o2)C(=O)NCCCN2CCOCC2)cc1	-5%	nt	-22%	nt	nt	8%	-9%	nt

Full records, quoted from the list. Screens in order: SARS PLpro yeast, Lassa entry inh, StopGo reporter, Cruzain inh Det, Cruzain inh noDet, NS1 inh, RE007 growth inh, Marburg entry inh
CSc1ncccc1C(=O)OCC(=O)Nc1ccc(Cl)cn1 reads 4%, 2%, -11%, nt, nt, nt, -20%, 17%
O=C(O)c1ccc(C(=O)C(=O)c2ccccc2)cc1 reads 4%, 0%, 15%, nt, nt, -38%, 21%, 18%[46.1 µM]
